Screens as filed in PubChem BioAssay.
Sa growth 42C – S. aureus growth inhibition. S. aureus RN4220 growth, OD600, 20 h, 42 °C; active compounds read low. relative growth, % (concentration not given with the values). 170,000 tested, 0.53% active;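 active = growth at 42 °C up to 50% and 20 or more points under that at 30 °C, or under 10% at both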;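 also: 300 nL library stock went into each well; scaled to the means of positive and negative controls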
GIV Gai3 FP – blocks GIV peptide binding to rat Galpha-i3. Galpha-i3/FITC-GIV peptide fluorescence polarization, 90 min; active compounds read low; scaled: aluminum fluoride 0%, vehicle 100%. percent of control (FP), % (no concentration beside the values). 210,000 tested, 0.42% active;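 active = replicate mean at 85% of control or lower, very high polarization wells dropped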;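 also: wells of about 15 µL received 100 nL stock; the first replicate is given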
Target sequence (P08753 whole entry, looked up): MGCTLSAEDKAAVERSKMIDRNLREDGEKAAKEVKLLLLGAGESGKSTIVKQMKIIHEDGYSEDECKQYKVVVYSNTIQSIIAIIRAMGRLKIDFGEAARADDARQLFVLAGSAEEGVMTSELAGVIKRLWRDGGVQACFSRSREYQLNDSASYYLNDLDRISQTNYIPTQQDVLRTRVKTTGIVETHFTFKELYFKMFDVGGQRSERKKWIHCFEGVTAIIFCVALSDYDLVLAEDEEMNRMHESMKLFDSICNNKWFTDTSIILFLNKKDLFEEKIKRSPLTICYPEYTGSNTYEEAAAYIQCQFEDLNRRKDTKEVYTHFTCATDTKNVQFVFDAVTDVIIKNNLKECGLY
HCMV NEC inh – inhibitors of HCMV UL50-UL53 nuclear egress complex interaction | HTRF UL50-UL53 interaction, normalized percent inhibition | inhibition, % (test concentration not listed) | 190,000 tested, 0.15% active | AID 1918969;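 active = both replicates at 50% or more, plus weaker picks with an unusually low signal ratio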;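 also: stock transfer was 100 nL into about 20 µL; 0% = negative control wells and 100% = wells with untagged competitor protein; inactives centre near -12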
Sa growth 42C second temp – second read-out of Sa growth 42C, no call of its own (marks repeat the call); relative growth, %; measured here: growth at 30 °C;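 optical density after 20 h as mean of two plates; 100% = untreated growth and lower means inhibition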
* marks the source's active call; other numbers are inactive results; nt = no result given; & = joins results of further samples.

smiles,GIV Gai3 FP,HCMV NEC inh,Sa growth 42C second temp,Sa growth 42C
[O-][n+]1c2c(nn1-c1ccccc1)CCc1ccccc1-2,nt,-1,81,98
COc1ccc(OC)c(NC(=O)CN2CCCN(Cc3cc(C)ccc3C)S2(=O)=O)c1,101,nt,90,90
Cc1nn(S(C)(=O)=O)c(C)c1S(=O)(=O)N1CCOCC1,106,-25,nt,nt
CC(C)CN(CC(C)C)C(=O)C1c2ccccc2Oc2ccccc21,99,nt,94,106
COC(=O)c1cn(CC(=O)Nc2ccc(OC)cc2)c2ccccc12,106,-5,95,104
N#C/C(C(=O)Nc1ccc(Cl)cc1)=C1/SCC(=O)N1c1ccccc1,nt,-36,82,108
O=C(Oc1ccc(-c2csnn2)cc1)c1cc(C(F)(F)F)cc(C(F)(F)F)c1,103,-36,95,93
CC(C)/C=c1/[nH]c(=O)/c(=C/c2ccccc2)[nH]c1=O,nt,-16,95,106
O=C(Cn1c(=O)oc2cc(S(=O)(=O)N3CCCC3)ccc21)N1CCCC1,99,nt,66,81
O=C(O)C1CSC(c2ccccc2Cl)N1C(=O)c1ccccc1F (stereo unspecified),nt,-23,80,137
C=CCN1C(=O)c2ccc(C(=O)OCC(=O)c3cc(C)n(-c4cc(C)on4)c3C)cc2C1=O,nt,3,94,106
Cc1nc(=O)c(-c2ccccc2)c(C)n1CCCN1CCOCC1,nt,-4,89,111
Nc1ccc(S(N)(=O)=O)cc1,nt,-34&-2&15,84,88
c1ccc2oc(-c3ccc(-c4nc5ccccc5o4)cc3)nc2c1,105,8,99,101
S=c1nc(NCCc2ccccc2Cl)c2ccccc2[nH]1,103,nt,79,91
CN(C)/C=C/c1cc(=S)c2ccccc2s1,138,nt,73,90
C=CCNC(=O)CN1C(=O)COc2ccccc21,101,1,88,112
COCC(C)n1c(Sc2ncnc3sccc23)nc2ccccc2c1=O (stereo unspecified),nt,5,90,89
N/C(=N\O)c1ccncc1,107,2,107,92
c1ccc(N2CCN(CSc3nc4ccccc4s3)CC2)cc1,nt,-14,100,89
Cc1cccc(C)c1NC(=O)CSc1ncc2c(n1)-c1ccc(Cl)cc1N(Cc1ccccc1)S2(=O)=O,102,nt,89,91
CC(=O)N1c2ccccc2NC2=C(C(=O)CCC2)C1c1ccco1 (stereo unspecified),102,nt,78,104
CC(C)(C)c1cc(C(C)(C)C)n(-c2ccc(N3C(=O)COCC3=O)cc2)n1,102,4,85,108
O=C(CC1SC(=Nc2ccccc2)NC1=O)NCc1ccccc1 (stereo unspecified),115,6,92,89
CCOC(=O)c1c(S(=O)(=O)NCC(=O)Nc2ccc(C(C)=O)cc2)c(C)n(C)c1C,99,nt,91,76
Cc1cccc(-c2noc(CNC(=O)C34CC5CC(CC(C5)C3)C4)n2)c1,100,-11,71,84
O=c1cc(CSc2ncccn2)nc2sccn12,nt,-9,90,110
O=C(Cn1nc(-c2ccccc2)ccc1=O)NCCc1ccccc1,100,nt,85,123
CCS(=O)(=O)c1ccc(O)c(NC(=O)CSCC(=O)O)c1,102,-19,87,90
O=C1CCCN2N=C(SCC(=O)NCc3ccco3)SC2=N1,105,-6,75,79
CCOc1c(NCc2ccccc2Cl)c(=O)c1=O,100,-41,nt,nt
Cc1sc2nc(SC(C)C#N)n(C(C)C)c(=O)c2c1C (stereo unspecified),nt,-6,34,42
Cc1cccc(NC(=O)NC2CCCCC2)n1,106,nt,84,110
Cc1cc(C)cc(NC(=O)CCc2c(C)nc3nc(CN)nn3c2C)c1,108,-14,nt,nt
Cc1cccc(NC(=O)CSc2nc3ccccc3nc2N2CCCCC2)c1C,107,-37,89,93
O=c1c(C=NCc2cccnc2)c(C(F)(F)F)[nH]n1-c1nc2ccccc2s1,nt,-8,100,74
O=C(Cc1csc2nc(-c3ccccc3)cn12)N1CCN(c2ccc(F)cc2)CC1,99,-10,nt,nt
COC(=O)CNC(=O)Cn1c(=O)n(CCc2ccccc2)c(=O)c2ccccc21,99,-6,84,102
Cc1cccc(-c2noc(-c3cc(-c4ccccc4)n[nH]3)n2)c1,105,-22,nt,nt
Cc1cc2c3nonc3ccc2n1-c1ccccc1,99,-15,112,103

Whole records from above.
Entry for `Cc1sc2nc(SC(C)C#N)n(C(C)C)c(=O)c2c1C` (stereo unspecified) = GIV Gai3 FP = nt; HCMV NEC inh = -6; Sa growth 42C second temp = 34; Sa growth 42C = 42
Entry for `Cc1cc2c3nonc3ccc2n1-c1ccccc1` = GIV Gai3 FP = 99; HCMV NEC inh = -15; Sa growth 42C second temp = 112; Sa growth 42C = 103

Further results:
smiles,GIV Gai3 FP,HCMV NEC inh,Sa growth 42C second temp,Sa growth 42C
Cc1nn(-c2cc(N3CCCC3)ncn2)c(C)c1CCC(=O)NCc1cccc(Cl)c1,101,-26,nt,nt
O=C(NCCN1CCN=C1c1ccccc1)c1ccccc1,nt,-14,84,130
CNC(=O)CCCn1nc(C)c2sc3ccccc3c2c1=O,104,nt,85,86
Cc1ccc(NC(=O)CN2CCSc3ccc(S(=O)(=O)N4CCCC4)cc32)cc1C,103,nt,84,114
Cc1nc2sc(C(=O)c3ccccc3)c(N)c2c(-c2ccncc2)c1C(=O)Nc1ccccc1,106,6,nt,nt
CC(C)Oc1nc(N)c(C#N)c(-c2ccc3c(c2)OCO3)c1C#N,109,-29,64,84
COCCn1c(=N)c(C(=O)NCc2ccco2)cc2c(=O)n3cc(C)ccc3nc21,109,-80,91,103
CCCCNC(=O)NC1C2CC3CC(C2)CC1C3 (stereo unspecified),109,1,99,103
Cc1cc(C)cc(NC(=O)Cn2nc3c4c5c(sc4ncn3c2=O)CCCC5)c1,107,1,nt,nt
O=C(c1ccccc1)N1CCN(C2CCCC2)CC1,nt,-11,83,108
Cc1cccc(N2CC(C(=O)Nc3cccc(-c4nc(-c5ccccc5)no4)c3)CC2=O)c1 (stereo unspecified),110,-26,nt,nt
Cc1cc2[nH]c(=O)c(=O)[nH]c2cc1S(=O)(=O)N1C(=O)CNc2ccccc21,104,-17,91,100
CC(C)CCNC(=O)Cn1cnc2c(cnn2-c2ccc(S(N)(=O)=O)cc2)c1=O,nt,-13,91,89
CCc1c(-c2ccccc2)nc2ccccc2c1C(=O)NCc1ccc(C)cc1,97,nt,76,87
CCOc1ccc(-c2cc(C(=O)O)c3ccccc3n2)cc1,98,-42,101,106
Cc1ccc(C2=C(CC(=O)O)C(=O)CC2)cc1,103,-12,87,109
Cc1nn(Cc2ccc(F)cc2Cl)c(=O)c2noc(C)c12,111,3,nt,nt
O=S(=O)(c1cccc2cccnc12)N1CCN(c2nc3cccnc3s2)CC1,104,-17,nt,nt
CCCCCOc1ccc(C2Oc3ccccc3C3CC(c4ccc(OC)cc4)=NN32)cc1 (stereo unspecified),98,-8,nt,nt
CCOc1ccc(C(=O)SC2=NCCS2)cc1,102,nt,88,97
O=C(CSC1=NCCN1)C1COc2ccccc2O1 (stereo unspecified),103,-16,59,88
CS(=O)(=O)N1CCc2cc(C(=O)N3CCN(c4ccccc4F)CC3)ccc21,103,0,92,106
O=C(CCS(=O)(=O)c1ccccc1)Nc1ccccc1N1CCOCC1,nt,5,108,116
CC1CCN(C(=O)Cn2c(SCC(=O)Nc3ccc(F)cc3)nc3ccccc32)CC1,102,nt,83,88
Cc1cc(C)c(-c2ccn(C(=O)c3snnc3C)n2)[nH]1,99,0,63,107
O=C(NCCCN1CCOCC1)c1cnc2sc3c(n2c1=O)CCC3,104,0,nt,nt
Cc1ccccc1N1CCN(S(=O)(=O)c2ccccc2)CC1,106,-16,76,98
CCc1ccc(S(=O)(=O)c2c(C(=O)c3ccc(C)c(C)c3)cnc3ccccc23)cc1,104,-34,92,112
CCn1c(=O)cc(OCC(=O)N2CCCCC2C)c2ccccc21 (stereo unspecified),95,nt,91,99
CCc1cccc(NC(=O)c2ccc(CN3C(=O)C(C)=C(c4ccc(OC)cc4)S3(=O)=O)cc2)c1,102,nt,98,108
CCN(CC)C(=O)c1c(NC(=O)c2cccc(C)c2)sc2c1CCC(C)C2 (stereo unspecified),104,-32,84,101
CC1(C)CC(C(=O)NCCC(c2ccccc2)c2ccco2)CCO1 (stereo unspecified),100,5,89,114
O=C(Nc1ccccc1)C(=S)N1CCOCC1,nt,11,79,77
CCC1Oc2ccc(S(=O)(=O)N3CCN(C(=O)c4cc5ccccc5[nH]4)CC3)cc2NC1=O (stereo unspecified),102,7,nt,nt
CN(C)C(=O)COC(=O)c1ccc(Oc2ccc(C(=O)OCC(=O)N(C)C)cc2)cc1,nt,-8,97,93
COc1ccc(S(=O)(=O)N2c3cccc4cccc(c34)S2(=O)=O)cc1,nt,-8,88,101
Cc1cnn2c1nnc1c3ccccc3ccc12,nt,-67,85,98
CCOc1ccc(-c2nonc2NC(=O)c2oc3ccc(F)cc3c2C)cc1,106,21,96,96
Nn1c(Cc2cccc3ccccc23)nnc1SC1CCOC1=O (stereo unspecified),nt,-6,92,80
C[C@@H](C(=O)Nc1nc2ccccc2s1)N1C(=O)C2CC=CCC2C1=O (stereo partly specified),nt,-6,95,98

Sorted by SMILES length (largest number first): four of the compounds above.
smiles,GIV Gai3 FP,HCMV NEC inh,Sa growth 42C second temp,Sa growth 42C
CCc1cccc(NC(=O)c2ccc(CN3C(=O)C(C)=C(c4ccc(OC)cc4)S3(=O)=O)cc2)c1,102,nt,98,108
O=C(CCS(=O)(=O)c1ccccc1)Nc1ccccc1N1CCOCC1,nt,5,108,116
CC1(C)CC(C(=O)NCCC(c2ccccc2)c2ccco2)CCO1 (stereo unspecified),100,5,89,114
O=C(Nc1ccccc1)C(=S)N1CCOCC1,nt,11,79,77

(next part)
smiles,GIV Gai3 FP,HCMV NEC inh,Sa growth 42C second temp,Sa growth 42C
Cc1nn(C(C)C(=O)Nc2ccccc2Cl)c(=O)c2c(-n3cccc3)n(-c3ccccc3)nc12 (stereo unspecified),101,-2,nt,nt
CC(=O)NC(CC(=O)Nc1ccc(N2CCOCC2)cc1N1CCOCC1)c1ccccc1 (stereo unspecified),nt,-10,98,75
COc1cccc(Nc2ncccc2C(=O)Nc2ccc(F)cc2)c1,nt,-4,72,72
CCc1ccc(CNC(=O)CN2C(=O)C(C)=C(c3ccc(CC)cc3)S2(=O)=O)cc1,99,-13,nt,nt
CCOC(=O)c1ccccc1NC(=O)N1CCOc2ccc(Cl)cc21,107,7,96,82
Cc1ccc2nsnc2c1NC(=O)C(c1ccccc1)c1ccccc1,97,-2,91,85
O=C(COC(=O)C12CC3CC(CC(Cl)(C3)C1)C2)NCc1cccs1,nt,-12,94,104
CCOc1ccc(NC(=O)Cc2ccc(NC3=NC4CS(=O)(=O)CC4S3)cc2)cc1 (stereo unspecified),106,-25,nt,nt
O=C(COC(=O)c1cnccn1)c1ccc(C2CCCCC2)cc1,nt,-15,85,97
N#C/C(=C\Nc1ccc(F)cc1)S(=O)(=O)c1cccs1,102,-14,91,95
CC1CCCCN1C(=O)Cn1c(=O)n(-c2ccc(F)cc2)c(=O)c2sccc21 (stereo unspecified),104,-2,85,99
CCOc1ccc(N2CC(c3nc4ccccc4n3CCCCOc3ccc(OC)cc3)CC2=O)cc1 (stereo unspecified),106,-32,83,100
CN(C)C(CNC(=O)Nc1ccccc1)c1cccnc1 (stereo unspecified),99,-22,90,99
O=C1CN(C(=O)Cc2ccc(F)cc2)C(c2ccccc2)c2cc(Cl)ccc2N1 (stereo unspecified),103,13,98,97
CC1=C(C#N)C(=O)N(CCO)C(=O)/C1=C\c1ccc(-c2ccccc2)o1,106,-36,0,45
O=[n+]1c2c(n([O-])c3c1CCCC3)CCCCC2,102,-17,98,110
O=C(NN1CCOCC1)c1ccc(C(=O)c2ccccc2)cc1,nt,-18,93,104
CCOC(=O)C1CCCN(S(=O)(=O)c2ccc3c4c(cccc24)C(=O)N3CC)C1 (stereo unspecified),nt,-53,94,94
CS(=O)(=O)N(Cc1nnc(SCC(N)=O)n1-c1ccccc1)c1ccc(F)cc1,102,-4,nt,nt
Cn1c(=O)c2c(-c3ccccc3)n3c(c2n(C)c1=O)C(c1cccc([N+](=O)[O-])c1)Nc1ccccc1-3 (stereo unspecified),106,-16,89,119
Cc1oc2c(CN3CCCC(C)C3)c(O)ccc2c(=O)c1-c1nc2ccccc2s1 (stereo unspecified),100,-5,93,105
Clc1nnc(-c2ccccc2)c(-c2ccccc2)n1,103,-90,-0.3*,-0.6*
O=C(Nc1ccc2sc(NC(=O)C3CCCCC3)nc2c1)c1n[nH]c2c1CCCC2,108,-27,nt,nt
CN(CCC(N)=O)Cc1ccccc1,98,-12,99,112
N#Cc1c(OCC(F)(F)F)ccc(Sc2ncccn2)c1OCC(F)(F)F,104,-22,88,99
CCn1nc(C)c2c(-c3ccccc3)cc(=O)n(C(C)C(=O)NCc3ccccc3OC)c21 (stereo unspecified),99,nt,67,62
O=C(NCC(=O)N1CCc2ccccc2C1)c1ccc2c(c1)OCO2,nt,-19,89,94
O=C(Cn1c2ccccc2n2ncnc12)c1ccc(-c2ccccc2)cc1,100,nt,97,100
